# Screening data (PubChem BioAssay)
# Bfl-1 A1 inh = caspase 3/7 activation in MEF A1-2A-BIM cells, primary screen, A1 inhibitor project, cell-based, luminescence, HTS; AID 2462, 2010; caspase activation, % (concentration not given with the values); 330,000 compounds, 0.066% hits; Caspase-Glo 3/7 luminescence, 3 h; percent of clofoctol response, vehicle zero;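 active = over half of replicate activation scores above 10%, or exactly half above 10 with the replicate mean above 10; inconclusive = replicate mean below 10 yet half the replicates above 10; inactive = over half of replicates below 10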;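 also: wells of about 30 µL received 50 nL stock; many hits fall short of the cut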
# LANA-H2A inh = blockers of LANA interaction with H2A/H2B – biochemical, FP readout, HTS, primary screen | AID 2629, 2010 | 320,000 compounds, 0.6% hits | Protein LANA1 (Human herpesvirus 8 type P (isolate GK18)), Q9QR71 | inhibition, % (concentration not given with the values) | cell-free LANA-H2A/H2B peptide, fluorescence polarization; in the data active = inhibition mostly above about 10%, no sharp cut-off; inactive = mostly below about 6.7%;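 also: stock transfer was 7.5 nL into about 10 µL; 0% = median of vehicle wells and 100% = median of positive control wells; one replicate is shown; the record names a cut of 25% in any replicate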
# Calb FLC = C. albicans growth inhibition with fluconazole, primary screen, CaCi-2 strain, Alamar Blue fluorescence; AID 1979, 2009; growth inhibition, % (no concentration beside the values); C. albicans CaCi-2 (fluconazole-resistant clinical isolate) + fluconazole, 48 h; 300,000 compounds, 0.57% hits;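 active = most replicates above 75%; inconclusive = exactly half above 75%; inactive = most below 75%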;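 also: all wells also contain fluconazole at 8 µg/ml as a sub-toxic cotreatment; 0% = median of DMSO wells and 100% = median of geldanamycin control wells; wells of about 8 µL received 7.5 nL stock; the first replicate is given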
# Beta cell apopt = inhibitors of cytokine-induced beta cell apoptosis, primary screen, luminescence; 300,000 compounds, 0.8% hits; INS-1E cytokine-induced death, ATP luminescence, 48 h; percent of positive-control rescue, neutral wells zero; protection from apoptosis, % (test concentration not listed);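 active = all replicates at 75% or more, or half of them and the mean; inconclusive = half reach 75% but not the mean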;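 also: 0% = cytokine-treated negative control wells and 100% = positive control rescue; higher means more ATP so stronger rescue from cytokine killing; wells of about 40 µL received 100 nL stock; the first replicate is given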
# B2AR ag = beta2AR agonists driving receptor internalization, primary screen, cell-based, FAP fluorogen, flow cytometry; Beta-2 adrenergic receptor (Homo sapiens), P07550; Am2.2-beta2AR cells; reference of the scale not given here; response, % (no concentration beside the values); 340,000 compounds, 0.43% hits;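 active = response above a set limit, near 3 SD of response in nonfluorescent compounds, cut at about 42% in these data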;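 also: stock transfer was 100 nL into about 11 µL; a reference agonist was the positive control; negative values mostly stem from fluorescent compounds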
# Target sequence (P07550 whole entry, looked up): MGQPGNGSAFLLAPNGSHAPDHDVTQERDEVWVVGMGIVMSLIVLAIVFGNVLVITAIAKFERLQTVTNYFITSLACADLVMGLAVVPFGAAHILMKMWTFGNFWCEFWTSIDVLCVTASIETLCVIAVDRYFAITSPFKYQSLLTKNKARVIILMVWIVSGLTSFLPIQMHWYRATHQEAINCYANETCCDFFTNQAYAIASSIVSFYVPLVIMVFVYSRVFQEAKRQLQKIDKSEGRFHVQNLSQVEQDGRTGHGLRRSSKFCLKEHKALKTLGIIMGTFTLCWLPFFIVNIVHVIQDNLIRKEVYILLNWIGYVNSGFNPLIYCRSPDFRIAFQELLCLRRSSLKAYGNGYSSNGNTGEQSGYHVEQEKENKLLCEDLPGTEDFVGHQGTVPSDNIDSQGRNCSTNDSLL
# RanGTP-Imp inh = inhibitors of RanGTP-importin-beta interaction, primary screen, biochemical, FRET, CFP-Ran, YFP-importin-beta, homogeneous; Ran GTPase (GTP-bound) - importin-beta complex; cell-free CFP-Ran/YFP-importin-beta FRET ratio; inhibition, % (test concentration not listed); 300,000 compounds, 1.1% hits; AID 2216, 2009;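 active = most replicates above 15%; inconclusive = exactly half above 15%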;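 also: 0% = DMSO wells and 100% = Ran loaded with GDP instead of GTP; wells of about 40 µL received 100 nL stock; the first replicate is given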
# UCH37 inh = inhibitors of human UCH37 deubiquitinase, primary screen, biochemical, Ub-AMC cleavage, fluorescence; Ubiquitin carboxyl-terminal hydrolase isozyme L5 (Homo sapiens), Q9Y5K5; purified proteasome/UCH37; inhibition, % (test concentration not listed); 330,000 compounds, 0.33% hits;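 active = mean of two replicates above 20%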;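 also: 0% = compound-free wells with enzyme and 100% = wells lacking proteasome; stock transfer was 100 nL into about 20 µL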
# Target sequence (Q9Y5K5 whole entry, looked up): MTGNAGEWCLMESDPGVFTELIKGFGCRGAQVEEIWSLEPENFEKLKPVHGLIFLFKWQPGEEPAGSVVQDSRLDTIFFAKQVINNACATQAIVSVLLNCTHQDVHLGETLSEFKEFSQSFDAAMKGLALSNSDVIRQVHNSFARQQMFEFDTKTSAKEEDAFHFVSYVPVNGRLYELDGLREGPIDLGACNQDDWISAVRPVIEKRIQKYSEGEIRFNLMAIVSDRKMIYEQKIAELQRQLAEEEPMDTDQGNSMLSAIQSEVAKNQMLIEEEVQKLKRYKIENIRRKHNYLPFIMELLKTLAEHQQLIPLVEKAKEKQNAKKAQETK
#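 Assay system: Proteasome-bound UCH37. Buffer or medium: pH 7.4 Tris-HCl (50 mM) with ovalbumin, ATP-MgCl2, DTT. Incubation: 30 min preincubation with enzyme, 25 min cleavage at room temperature. Measured by: fluorescence, ex 355 nm, em 460 nm. Read-out basis: percent inhibition. Control set: wells without proteasome as full block, compound-free enzyme plus substrate as uninhibited.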
# T cruzi inh = inhibitors of intracellular T. cruzi growth, primary screen, luminescence, NIH3T3 host cells. T. cruzi beta-gal in NIH3T3, 90 h. 300,000 compounds, 1.4% hits. AID 1885, 2009. inhibition, % (no concentration beside the values);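 active = mean inhibition across valid replicates above about 55%, limit read from the data; inconclusive = mean below that limit but half or more replicates reach it; inactive = mean below it, under half of replicates reach it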;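 also: signal also drops with host cell toxicity which is not excluded here; 0% = plate median of DMSO wells and 100% = zero luminescence signal; higher percent means less beta-gal luminescence so fewer parasites; stock transfer was 50 nL into about 50 µL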
# * hit, by the source's call; ? = inconclusive; / = not tested or not shown.
SMILES,Bfl-1 A1 inh,LANA-H2A inh,Calb FLC,Beta cell apopt,B2AR ag,RanGTP-Imp inh,UCH37 inh,T cruzi inh
CC(C)c1nc(CNC(=O)C2CCC(=O)N(CCc3cccc(F)c3)C2)cs1 (stereo unspecified),0.0,-13,-1,-4,-8,-1.5,3.0,-2
O=C(Cn1nc(C(=O)O)c2ccccc2c1=O)Nc1cccc(Br)c1,0.7,0.1,-15,-9,-6,-0.2,-0.4,3
CCC(C)NC(=O)CNC(=S)N(Cc1ccccc1)Cc1cccnc1 (stereo unspecified),0.9,-0.8,-7,4,1,-1.7,1.3,50
O=S(=O)(Cc1ccccc1Cl)N1CCCCC1,-1.5,-0.2,-4,-2,20,0.3,2.9,1
COc1ccc(C2CC(=O)C(C=NCCN3CCNCC3)=C(O)C2)cc1OC (stereo unspecified),/,/,4,/,/,-1.4,4.1,5
CCCP(=O)(CC(=O)N(CC)CC)c1ccccc1 (stereo unspecified),0.1,6.2,-1,2,3,0.8,-0.9,-11
Cc1nnsc1C(=O)N/N=C/c1ccc(OC(F)(F)F)cc1,-6.5,-0.1,1,0,-4,-0.4,/,5
Cc1ccc(-c2csc(NC(=O)Cn3cnc4c3c(=O)n(C)c(=O)n4C)n2)cc1C,0.2,4.8,/,6,13,/,2.9,/
CC1CCCN(S(=O)(=O)c2ccc(NC(=O)CNC3CCCC3)cc2)C1 (stereo unspecified),0.4,3.9,-16,-3,4,-2.6,/,6
COc1cccc(NC(=O)c2cc(C(=O)Nc3cccc(OC)c3)n(C)n2)c1,0.2,-6.5,1,10,3,2.2,4.0,2
Cc1ccc(-c2c(C)sc3nc[nH]c(=O)c23)cc1C,0.3,-1.6,-52,/,-1,2.1,5.2,0
COc1ccc(-c2csc(-c3ccccc3)n2)c(OC)c1,-7.9,3.9,99*,/,7,2.6,-2.8,-9
Cc1ccc(S(=O)(=O)Nc2ccc(-c3cn4ccc(C)cc4n3)cc2)cc1,-0.1,2.3,16,-8,-11,-128,0.0,15
COCCn1c(SCc2nc3ccccc3c(=O)[nH]2)nc2ccccc2c1=O,-0.7,1.3,21,3,-2,1.5,4.3,3
CC(CN1CCOCC1)OC(=O)c1ccccc1Cl (stereo unspecified),0.0,3.2,-10,0,-3,0.1,2.7,-1
CSc1ccccc1C(=O)NCc1ccccc1C,-0.6,1.9,0,-5,-4,2.3,-1.0,2
O=c1[nH]c(C2CCN(S(=O)(=O)c3ccc4c(c3)OCCO4)CC2)nc2c1nnn2Cc1ccccc1,/,/,-2,/,2,-1.4,3.5,-4
O=C(Nc1cccnc1Cl)c1cccs1,-0.1,-0.9,17,4,-7,?,-1.0,-4
CC(=O)Nc1ccc(C2NC(=O)CCC2[N+](=O)[O-])cc1 (stereo unspecified),-4.3,-1.1,-1,4,1,0.2,2.1,-9
Cc1nn(-c2ccccc2)c2sc(C(=O)N(Cc3ccco3)C(C)C(=O)NC(C)(C)C)cc12 (stereo unspecified),-0.1,3.9,4,41,-1,?,6.1,44
O=C(NCCC1=CCCCC1)C1CCCN(c2nc3ccccc3o2)C1 (stereo unspecified),1.0,-3.2,-2,-2,6,2.4,0.9,9
Cc1noc(C)c1COc1ccc(C(=O)NNC(=O)c2ccccc2)cc1,0.5,-1.8,-2,/,-13,7.5,3.6,-2
Cc1ccc(NS(=O)(=O)c2ccc(C(=O)N3CC(C)CC(C)C3)cc2)cc1 (stereo unspecified),-0.4,3.9,-3,11,9,6.8,5.9,9
Cc1ccc(-c2nn(-c3ccccc3)cc2/C=C(\C#N)C(=O)NCc2ccccc2)cc1,-0.3,1.7,17,-2,-22,0.5,-171,-13
CC(Sc1ccccn1)C(=O)Nc1ccc2c(c1)OCCO2 (stereo unspecified),-0.6,1.8,/,-3,-2,/,3.3,/
O=C(COC(=O)c1c2c(nc3ccccc13)CCN(Cc1ccccc1)C2)Nc1c(F)cccc1F,0.4,-2.0,0,-1,20,2.1,2.7,43
O=c1[nH]c(Cc2ccc(Cl)cc2)nc2ccccc12,0.2,3.7,1,-5,-3,-1.5,3.9,-10
C[n+]1ccc(/C=C/c2c[nH]c3ccccc23)cc1,0.4,-163,-4,51,-150,-212,12,30
COc1ccc(CNC(=O)C(=O)NCC2OCCN2C(=O)c2ccc(OC)cc2)cc1 (stereo unspecified),0.7,-0.5,-2,0,-6,0.7,1.2,-13
COc1ccc(OCCNc2cc(N3CCCCC3)ccc2[N+](=O)[O-])cc1,-0.1,-0.1,3,-7,0,-4.3,8.8,43
CCOc1ccc(NS(=O)(=O)c2ccc(-c3cnc(C4CC4)o3)cc2)cc1,0.8,0.2,-5,-2,-12,2.5,2.8,-1
CCOC(=O)C(NC(C)=O)C(=O)Nc1ccc(OC)cc1 (stereo unspecified),-0.2,1.1,-9,-5,2,3.9,-2.5,-6
COCCN(C(=O)Cc1cccs1)C(C(=O)NC1CCCC1)c1ccc(OC)c(OC)c1 (stereo unspecified),-0.3,-0.1,?,5,3,-2.6,1.5,3
NNC(=O)CCn1nnc2ccccc21,1.0,-0.5,-6,/,2,0.4,4.9,10
O=C1CC(c2ccc(Cl)cc2)CC(O)=C1C=NCCN1CCNCC1 (stereo unspecified),-0.7,0.3,-2,-6,/,1.7,-0.7,9
Cc1ccsc1/C=N/NC(=O)c1ccc(-n2cccc2)cc1,-2.8,2.9,-5,6,-1,3.6,/,5
S=C(Nc1ccccc1)N1CCN(c2ccccn2)CC1,0.5,4.2,21,-4,12,5.1,3.6,-14
CC1Cc2cc(S(=O)(=O)N3CCCCC3C)ccc2N1C(=O)C1CCC1 (stereo unspecified),-0.5,-0.9,-13,13,-10,4.0,0.1,5
Cn1c(C(=O)O)ccc1S(=O)(=O)N1CCCCCC1,0.2,3.7,-5,-2,0,-2.8,4.0,-18
CC(=O)c1cccc(NC(=O)CSc2nc(C3CC3)nc3ccccc23)c1,0.0,4.4,-7,-6,-6,-0.3,2.5,0
Cc1ccsc1C1NC(=O)c2c(sc3c2CCCC3)N1 (stereo unspecified),-12,3.5,42,-3,-17,5.2,-2.4,-7
CCN(CC)CC#CC(OC)(c1ccccc1)c1ccccc1,-0.7,2.3,0,0,2,-0.6,2.4,19
O=C(COC(=O)c1cccs1)Nc1nc(-c2ccccc2)cs1,-1.4,-3.5,/,1,12,6.4,-16,10
CCN(CC)C(=S)Sc1c(-c2ccccc2)c2cc(Cl)ccc2[nH]c1=O,0.1,-2.7,-21,6,3,0.0,5.1,35
Cc1nn(Cc2ccc([N+](=O)[O-])cc2)c(=O)n1N(C)c1ncc(C(F)(F)F)cc1Cl,-1.1,-4.2,60,-3,-2,2.5,1.1,0
COC(=O)c1c(C)nc2ccccc2c1-c1ccccc1,0.6,1.6,19,-6,0,0.6,0.7,-10
COc1ccc(CC(=O)Oc2ccc(C#N)cc2)cc1,-0.6,1.3,5,2,5,2.2,0.5,-9
COc1ccc(NC(=O)C(=O)NNC(=O)c2cccs2)c(OC)c1,-1.0,1.3,-14,-7,-1,4.9,2.8,1
COc1ccc(C2CC(c3ccccc3)=NN2C(=O)COC(=O)c2ccc(S(C)(=O)=O)cc2)cc1 (stereo unspecified),0.2,5.0,-2,-6,-5,/,0.7,16
OCc1c(Cl)nc2ccccn12,-0.3,-2.8,13,-3,2,-0.7,2.3,-10
Cc1c(N/N=C(\C#N)C(=O)c2ccccc2)c(=O)n(-c2ccccc2)n1C,/,/,0,/,19,?,14,-1
Cc1ccc(CNC(=O)CCc2nnc3ccc(N4CCC5(CC4)OCCO5)nn23)cc1,-0.8,-2.5,13,-2,1,?,0.7,-2
Cc1cc2cc(CNC(=O)Nc3ccc(Cl)c(Cl)c3)ccc2n1C,0.1,-0.4,0,-1,6,-2.4,2.1,34
COc1cc(OC)cc(C(=O)NNC(=O)c2cc3c(s2)CCCC3)c1,1.0,-3.2,-7,5,0,2.4,0.0,-1
Cn1c(Cc2ccc3c(c2)OCO3)nnc1SCC(=O)NC1CCCC1,1.9,-2.1,-5,1,/,-0.4,3.6,4
CCOC(=O)N/N=C(\CCC(=O)O)c1cccs1,0.8,-2.7,10,-4,21,0.5,/,-9
O=[N+]([O-])c1cc(/C=N/N2CCN(c3ccccc3)CC2)ccc1Cl,-3.7,0.4,-4,8,-1,0.6,/,-5
Cc1ccc(N2C(=O)SC(N(CC(=O)O)c3ccc(C)cc3)C2=O)cc1 (stereo unspecified),0.0,1.2,15,-7,0,/,/,-22
CCc1noc(C)c1C(=O)NNC(=O)COc1ccc(Br)cc1,-0.1,-0.8,-1,-2,2,0.9,/,-10
O=C(Nc1ccc(Cl)c(S(=O)(=O)N2CCOCC2)c1)c1ccc2c(c1)OCO2,-1.0,2.1,/,-1,21,/,5.8,/

# Results in B2AR ag, Bfl-1 A1 inh and LANA-H2A inh (2 entries from above):
canonical_smiles | B2AR ag | Bfl-1 A1 inh | LANA-H2A inh
Cc1ccc(CNC(=O)CCc2nnc3ccc(N4CCC5(CC4)OCCO5)nn23)cc1 | 1 | -0.8 | -2.5
Cc1cc2cc(CNC(=O)Nc3ccc(Cl)c(Cl)c3)ccc2n1C | 6 | 0.1 | -0.4

# Next results:
SMILES,Bfl-1 A1 inh,LANA-H2A inh,Calb FLC,Beta cell apopt,B2AR ag,RanGTP-Imp inh,UCH37 inh,T cruzi inh
Cc1snc(SCC(=O)N/N=C(\N)COc2cccc(C(F)(F)F)c2)c1C#N,-0.6,11,-12,0,5,-2.8,/,-5
CCC(CO)n1c(=S)[nH]c2cc(OC)c(OC)cc2c1=O (stereo unspecified),0.6,0.9,11,-1,2,0.2,6.4,-8
Cc1ccc(CCNC(=O)c2cc(S(=O)(=O)N3CCCCC3)c[nH]2)cc1,0.4,-1.0,-8,-6,2,1.0,7.8,8
COc1ccc2ccccc2c1/C=N\n1c(C)cc(C)c(C(N)=O)c1=O,0.2,-4.2,19,-4,1,2.6,/,11
Cc1cc(C)nc(NC(=O)C(C)C)n1,0.5,-1.4,-2,7,-2,2.1,2.1,-8
COc1cc(C(C)=O)ccc1OCCCN1CCC(Cc2ccccc2)CC1,0.2,1.0,13,0,-9,-0.8,2.3,51
Cc1ccc(C)c(NC(=O)C2CCCN2S(=O)(=O)c2ccc3c(c2)n(C)c(=O)c(=O)n3C)c1 (stereo unspecified),-0.5,-7.1,8,3,-2,2.2,2.3,-3
O=S(=O)(NCCN1CCOCC1)c1ccc2ccccc2c1,-0.1,-2.3,/,1,-4,/,2.9,/
CN(C(=O)CSc1nnc(-c2ccncc2)n1Cc1ccccc1)C1CCS(=O)(=O)C1 (stereo unspecified),-0.1,-4.9,-6,-6,-1,-2.3,0.5,-5
Nc1c(C(=O)NCc2ccco2)c2nc3ccccc3nc2n1CCc1ccc(F)cc1,0.0,-5.2,5,0,-8,58*,-256,-2
